# Screening results (PubChem)
# gsp antag – gsp mutant antagonism; gsp-mutant cells, cAMP HTRF, 30 min; control for the full effect not named in the record; actives 0.4% (n = 340,000); Potency, µM (highest dose often 76.9 µM), for the others: at the top dose activity change, negative = inhibition, usual class: inhibitors; active = falling curve of any shape with a large fitted effect; inconclusive = falling curve, mostly with a smaller effect; inactive = flat or rising curve; cell line not stated here;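 also: intracellular cAMP measured with PDE inhibitor Ro 20-1724 present during compound exposure; potency is read from the fitted curve at half-maximal effect; % is scaled to controls: 0 for no effect and ±100 for the full control effect; nearly all actives have a fitted effect of over 65% in size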
#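 G418-selected cells were plated in DMEM/10% FBS for 16-24 h at 37C, then treated with compounds plus the PDE inhibitor […] (300 uM solution added) for 30 min at 37C. Intracellular cAMP was measured by HTRF after 30 min lysis at room temperature.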
# TRPML1 blocker – inhibitors of human TRPML1 channel. Q9GZU1. TRPML1-inducible cells, Ca2+ dye fluorescence, FDSS; stronger effect = lower value; inhibition of EC80 agonist-evoked calcium signal. activity change, negative = inhibition, % (concentration not given with the values). actives 0.02% (n = 390,000). AID 624415; in the data active means activity change below about -50%; inconclusive means about -30% to -50%; inactive means above about -30%;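 also: stimulus is agonist 54-4 at its EC80 concentration; % is scaled to controls: 0 for no effect and ±100 for the full control effect; compound concentration not given in the record; the text of the record puts the active cut at -80%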
# Target sequence (Q9GZU1 whole entry, looked up): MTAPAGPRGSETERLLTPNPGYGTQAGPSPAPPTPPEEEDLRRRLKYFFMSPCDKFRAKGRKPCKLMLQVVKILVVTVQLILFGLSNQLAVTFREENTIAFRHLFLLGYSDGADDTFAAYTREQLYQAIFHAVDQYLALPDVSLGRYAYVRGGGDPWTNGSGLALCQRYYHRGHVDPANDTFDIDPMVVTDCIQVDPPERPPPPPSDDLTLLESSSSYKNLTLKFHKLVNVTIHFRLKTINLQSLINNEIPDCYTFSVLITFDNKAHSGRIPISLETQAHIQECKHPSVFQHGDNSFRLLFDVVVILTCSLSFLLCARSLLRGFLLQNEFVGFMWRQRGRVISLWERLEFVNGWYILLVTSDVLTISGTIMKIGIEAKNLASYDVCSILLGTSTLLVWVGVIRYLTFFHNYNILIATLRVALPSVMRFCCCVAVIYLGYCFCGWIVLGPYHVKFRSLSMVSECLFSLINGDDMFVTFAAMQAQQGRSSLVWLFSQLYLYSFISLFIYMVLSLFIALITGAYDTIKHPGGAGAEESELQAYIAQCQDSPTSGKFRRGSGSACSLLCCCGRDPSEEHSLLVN
#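 Tet-induced TRPML1-DL cells loaded with Ca8 no-wash calcium dye were read kinetically on FDSS. Compound addition was followed by EC80 agonist 54-4 (4 uM final); inhibition was read over 110 s.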
# Menin MLL FP FL – menin-MLL binding inhibition, fluorescein peptide | 290,000 tested, under 10 active | AID 1766 | Fluorescence polarization, fluorescein-MLL peptide displacement from menin | FP activity change, % at 61.4 µM; inconclusive = falling polarisation curve, or a change in total fluorescence; inactive = total fluorescence flat and polarisation flat or rising; no compound was filed as active; the % refers to the polarisation; negative = inhibition;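 also: % of control where 0% means no effect; inhibitors lower the polarisation; unlabelled MLL peptide was the positive control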
# TRPML1 agonist – agonists of human TRPML1 channel; Q9GZU1; TRPML1-expressing cells, Ca2+ dye fluorescence, FDSS; host cell line not named in the record; reference of the full effect not given here; activation, % (concentration not given with the values); actives 0.12% (n = 410,000); AID 624414; in the data active = activation above about 50%; inconclusive = about 30% to 50%; inactive = below about 30%; also: 0% is about no effect; the text of the record puts the active cut at 80%
#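 Calcium fluorescence on an FDSS kinetic reader gave the read-out. Tet-induced TRPML1-DL cells were plated overnight, dye-loaded (Ca8 with quencher, 45-90 min, room temperature, dark), then read 110 s after compound addition, and again 110 s after 4uM final 54-4 (EC80).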
# gsp agonist – gsp mutant agonism; gsp mutant cells, cAMP HTRF, 30 min; control for the full effect not named in the record; Potency, µM (series often up to 76.9 µM), without a hit: top-dose activation (cAMP increase), usual class: activators; actives 0.13% (n = 340,000); active = well fitted activation curve with a large enough effect; inconclusive = small, poorly fitted or top-dose-only effect, or another doubt; inactive = no such curve, though single readings can be large or run the other way; cell line not stated here;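 also: phosphodiesterase inhibitor Ro 20-1724 added with compounds to block cAMP breakdown; potency is read from the fitted curve at half-maximal effect; nearly all actives have a fitted effect of over 60% in size; about a fifth of the inactives were tested at one dose only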
#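 Cells stably selected in G418 were plated at 2000/well, grown 16-24 hr, then given compounds in DMSO with the PDE inhibitor […] (300 uM solution added) for 30 min at 37C; cAMP was read by HTRF.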
# ClpP mod – qHTS Assay for Activators of ClpP | ATP-dependent Clp protease proteolytic subunit (Bacillus subtilis (strain 168)), P80244 | purified B. subtilis ClpP, FRET peptide cleavage, 20 min | Potency, µM (highest dose often 57.5 µM), without a hit: top-dose activity change, negative = active | actives 1.9% (n = 340,000); active = well fitted falling curve with a large enough effect; inconclusive = small, poorly fitted or top-dose-only effect; inactive = no such curve, though single readings can be large or run the other way; also: potency is read from the fitted curve at half-maximal effect; the source files actives as falling curves though it sought activators and does not explain the sign; nearly all actives have a fitted effect of over 65% in size; many hits overshoot -100%
# Target sequence (P80244 whole entry, looked up): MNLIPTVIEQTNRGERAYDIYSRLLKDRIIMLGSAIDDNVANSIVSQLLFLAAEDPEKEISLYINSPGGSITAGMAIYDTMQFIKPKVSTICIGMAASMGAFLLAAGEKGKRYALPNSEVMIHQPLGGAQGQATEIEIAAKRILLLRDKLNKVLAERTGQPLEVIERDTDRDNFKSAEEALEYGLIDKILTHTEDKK
#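 Buffer: 100 mM Tris/HCl pH8, 100 mM KCl, 0.05% low protease BSA, 2.5% glycerol, 0.01% Tween-20. ClpP 10 microg/mL final; 20 min RT; delta FRET normalized to ADEP and DMSO controls.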
# * = called active by the depositor; ? = inconclusive; nt = no result given; & = joins results of further samples; [ ] = another dose, or the depositor's remark.
canonical_smiles	gsp antag	TRPML1 blocker	Menin MLL FP FL	TRPML1 agonist	gsp agonist	ClpP mod
CSc1nnc(-c2sc3cc(C(F)(F)F)cnc3c2-c2ccccc2)n1C	-2.3%	-1.3	3.0	1.6	5.6%	31.6µM*
COc1cccc(CNC(=O)C2CCN(S(=O)(=O)c3ccc(Br)s3)CC2)c1	-20.6%	-26.3	-2.4	0.9	-22.7%	nt
CCC(C)Sc1ccc([C@@H]2[C@@H]3C(=O)N(CC)C(=O)[C@@H]3[C@]3(C(=O)OC)CCCCN23)cc1 (some centres not stated)	5.3%	-5.0	nt	1.0	?	-2.6%
O=C(/C=C/c1ccc([N+](=O)[O-])cc1)NCCc1ccc(F)cc1	-5.2%	-8.4	-2.0	0.9	-14.8%	0.6%
CCOc1ccc(NC(=O)C2CCCN(c3nn4cc(-c5ccc(OC)cc5)nc4s3)C2)cc1 (configuration not stated)	nt	17.3	nt	0.4	nt	1.0%
CCC1=NN2C(=N)/C(=C\c3cccn3-c3cccc(Cl)c3)C(=O)N=C2S1	?	2.6	0.3	-0.5	-4.0%[15.4 µM]	nt
COc1ccccc1N(Cc1ccccc1)S(=O)(=O)c1cccc(C(=O)Nc2cccc(C)n2)c1	-15.6%	27.3	nt	-0.1	31.4%	-21.4%
Cn1c(COc2ccc(Cl)cc2)nnc1SCC(=O)Nc1ccc2c(c1)CCC2	?	0.3	2.7	-1.6	?	14.5%
CCC(C(=O)Nc1ccccn1)c1ccccc1 (configuration not stated)	14.0%	1.4	nt	0.0	-14.6%[15.4 µM]	nt
CCc1ccc(NC(=O)CC2C(=O)Nc3c2c(=O)n(C)c(=O)n3C)cc1 (configuration not stated)	-12.2%	-8.2	-0.7	1.1	-3.1%	-2.2%
O=C(O)c1ccc(-n2ncc3c2/C(=C/c2cccc([N+](=O)[O-])c2)CC3)cc1	-14.9%	-5.7	-0.2	-0.5	4.7%	0.8%
CC(C)N(CC(=O)Nc1ccc(Cl)cc1C(F)(F)F)C(=O)CCl	4.1%	-5.0	-0.6	-0.2	-19.4%[15.4 µM]	nt
Cc1cc(NC(=O)c2ccc3nccnc3c2)ccc1Br	-5.8%	5.3	nt	-0.5	21.0%	2.9%
Cc1ccccc1C(=O)Nc1ccnn1C1CCN(C(C)Cc2ccccc2F)CC1 (configuration not stated)	7.4%	8.2	nt	-0.3	1.5%	-1.7%
Cc1cccc(C(=O)NCCNC(=O)c2ccccn2)c1	1.5%	-2.4	?	-0.3	?	nt
Cn1cc(S(=O)(=O)N2CCOCC2)cc1C(=O)NCc1ccccc1Cl	-9.9%	-0.7	-6.3	-0.7	2.5%	1.1%
COCCN1CCN(C(=O)c2ccc3c(c2)S(=O)(=O)c2ccccc2C3=O)CC1	-2.2%	2.6	nt	-0.3	-6.9%	-2.9%
O=C(Nc1ccc2oc(-c3ccccc3Cl)nc2c1)c1ncn[nH]1	-9.0%	-6.5	-5.7	0.4	-5.3%	-28.8%
CCOC(=O)C1=C(C)N(c2ccccc2)C(=O)/C1=C\c1cccs1	-1.3%	-12.4	nt	1.7	1.6%	-25.1%
COC(=O)COc1ccc(Oc2nc(NC(C)(C)C)nc(N(C)C)n2)nn1	nt	35.1	nt	1.5	nt	-1.4%
CCCCC(=O)N/N=C/c1ccc(Sc2cccc3cccnc23)o1	-20.8%	-3.6	17.5	2.4	7.2%	?
CCOc1ccc(N=C2NC(=O)SC2CC(=O)OC)cc1 (configuration not stated)	3.9%	-8.6	0.3	0.8	11.6%	nt
N#CC1=C(N)Oc2cc(N)ccc2C1c1ccc(Cl)cc1 (configuration not stated)	?	-13.1	9.8	0.1	-58.1%[inhibitor]	nt
Cn1cc(S(=O)(=O)N2CCC(C(N)=O)CC2)c(=O)n(C)c1=O	6.3%	-10.3	0.2	0.1	-26.8%	-0.4%

# Ordered by molar mass (smallest number first): 3 of the compounds above
canonical_smiles	gsp antag	TRPML1 blocker	Menin MLL FP FL	TRPML1 agonist	gsp agonist	ClpP mod
CCC(C(=O)Nc1ccccn1)c1ccccc1 (configuration not stated)	14.0%	1.4	nt	0.0	-14.6%[15.4 µM]	nt
CCOC(=O)C1=C(C)N(c2ccccc2)C(=O)/C1=C\c1cccs1	-1.3%	-12.4	nt	1.7	1.6%	-25.1%
O=C(O)c1ccc(-n2ncc3c2/C(=C/c2cccc([N+](=O)[O-])c2)CC3)cc1	-14.9%	-5.7	-0.2	-0.5	4.7%	0.8%

# The list continues.
canonical_smiles	gsp antag	TRPML1 blocker	Menin MLL FP FL	TRPML1 agonist	gsp agonist	ClpP mod
FC(F)(F)c1cccc(N/N=C/c2ccccc2)c1	0.6%	-16.2	4.5	2.0	-3.3%	-0.4%
OCCN(Cc1ccccc1)Cc1ccc(Cl)cc1	11.1%	-5.9	0.2	0.1	37.8%	1.0%
CCN1CCN(c2cc(C)c3cc(NC(=O)c4cncc(Br)c4)ccc3n2)CC1	0.3%	-5.2	1.7	1.5	0.1%[15.4 µM]	20µM*
COc1cc(/C=N/NC(=O)c2cccc([N+](=O)[O-])c2)ccc1OC(=O)c1ccco1	-3.7%	8.0	-2.2	3.5	9.5%[15.4 µM]	nt
OC(Cc1cccnc1)(c1ccccc1)c1ccccc1	0.2%	41.0	nt	0.7	-26.4%	-1.0%
COC(=O)c1ccc(CN2CCN(Cc3ccccc3)C(CCO)C2)cc1 (configuration not stated)	11.5%	27.4	-0.6	1.9	-4.6%[15.4 µM]	nt
Cc1cc([N+](=O)[O-])nn1Cc1c(F)c(F)c(F)c(F)c1F	3.4%	-4.8	4.2	0.3	16.1%	0.9%
CCCCC(=O)NC(c1ccco1)c1c(O)ccc2ccccc12 (configuration not stated)	-17.0%	18.4	5.2	-1.3	-1.2%	?
CCOC(=O)N1CCN(C(=O)c2ccc3c(c2)N=C(C)c2cc(Cl)ccc2S3)CC1	-20.3%	9.5	-2.8	-1.4	-5.7%	-1.5%
Cc1ccc(S(=O)(=O)C2(C(=O)Nc3ccc(F)cc3)CC2)cc1	-4.6%	10.4	1.1	1.3	-17.0%	1.7%
CC(=O)N1CCN(c2ccc(S(=O)(=O)N3CCOCC3)cc2[N+](=O)[O-])CC1	2.4%	18.9	nt	-0.7	-34.4%	nt
CCC(C(=O)Nc1cccc(C(F)(F)F)c1)c1ccccc1 (configuration not stated)	-21.6%	1.6	4.7	1.4	-8.9%	-0.2%
Cc1ccc2cc3cc(C(=O)NCCC(C)C)oc3nc2c1	5.2%	13.6	-0.4	0.5	-5.0%[15.4 µM]	-1.4%
Cn1cnc(S(=O)(=O)N2CCC(C(=O)NCc3ccccc3)CC2)c1	nt	-3.9	nt	1.4	nt	-4.0%
Cc1[nH]nc2c1C1(CCC3(CC1)OCCO3)C(C#N)=C(N)O2	11.2%	14.7	2.7	-0.5	0.8%	-0.4%
Cc1cccc(N2CC(C(=O)Nc3ccc(N4CCOCC4)cc3)CC2=O)c1C (configuration not stated)	6.0%	-4.0	nt	-0.3	-18.9%	1.1%
O=C(CSc1ncc(-c2ccccc2)n1CC1CCCO1)N1CCCCC1 (configuration not stated)	8.4%	-1.5	8.0	-0.2	-5.1%	0.3%
O=C1c2ccccc2C(=O)C1c1ccccc1	-8.3%	-1.4	-1.9	-0.4	nt	-0.1%
CN(Cc1nc(Cc2cccc(F)c2)no1)CC1COCCO1 (configuration not stated)	10.5%	2.7	-1.4	0.1	12.8%[15.4 µM]	nt
Cc1cccc(Cc2c(C)nc3nc(SCC(=O)NC4CCCCC4)nn3c2C)c1	nt	30.1	nt	2.6	nt	-3.5%
Nc1ccc(C(=O)NCC2(c3ccccc3)CCCC2)cc1	-23.9%	-23.6	-0.2	-0.6	24.1%[15.4 µM]	-0.3%
O=C(c1ccc(F)cc1)C1CCN(C(=S)NCC2CCCO2)CC1 (configuration not stated)	-8.5%	-1.6	-1.6	-0.5	-29.5%	0.2%
CCOC(=O)COc1ccc(C)cc1C(=O)c1ccn2nc(-c3ccc(F)cc3)cc2n1	nt	25.6	nt	0.2	nt	-4.2%
CC(C)(C)c1ccc(C(=O)N2CCCN(c3ccc([N+](=O)[O-])cn3)CC2)cc1	-10.0%	5.6	-0.5	0.7	-7.2%	1.2%
Cc1cc(C)n(C(=O)c2ccccc2[N+](=O)[O-])n1	9.2%	-6.8	3.2	1.1	?	35.5µM*
CS(=O)(=O)c1ccccc1C(=O)NCCC(c1ccccc1)c1ccccc1	-8.5%	22.0	3.0	2.8	-14.2%[15.4 µM]	nt
CCOc1cc(C(N)=O)cc(Cl)c1OCC	0.7%	-2.4	0.0	0.2	16.5%	0.3%
Cc1ccc(-c2ccc(S(=O)(=O)N3CCCC3)cc2)cc1	6.6%	10.4	3.0	-0.7	-0.7%	nt
COc1cc(/C=N/NC(=O)CCN2CCN(Cc3ccccc3)CC2)cc(OC)c1OC	4.8%	-4.1	4.5	-0.4	1.3%	-16.5%
COc1ccc(NS(=O)(=O)c2cc(NC(=O)c3cnccn3)ccc2N2CCCC2)cc1	-2.7%	27.3	1.2	0.7	?	-0.3%
NC(=O)c1sc(=S)n(-c2ccc(Br)cc2)c1N	6.0%	-13.3	0.2	-0.3	-32.8%[inhibitor]	-1.2%
COC(=O)c1ccc(CSc2nnc(-c3c[nH]c4ccccc34)n2C)o1	1.5%	9.2	-2.4	0.0	-6.1%	1.0%
Cc1ccc(NC(=O)CCOc2ccccc2)cc1	-5.3%	7.7	1.1	3.3	-6.0%	-0.3%&-2.2%
COc1ccccc1OCC(=O)OCC(=O)Nc1ncc(Cl)cc1Cl	-11.3%	48.2	0.1	1.9	2.6%	-0.6%
CO/N=C(\CCC(=O)O)c1cccs1	8.8%	2.3	2.4	-0.9	13.6%	-0.6%
Cn1c(=O)c2ccccc2n(Cc2ccccc2Cl)c1=O	-2.1%	-13.2	-0.5	2.7	3.3%	nt
COc1ccc(OCC(=O)NC(Cc2c[nH]c3ccccc23)C(=O)O)cc1 (configuration not stated)	nt	-0.4	nt	1.9	nt	-1.1%
COc1ccc(CCNC(=O)c2ccc3nc[nH]c3c2)cc1	5.5%	0.6	nt	2.3	?	-1.1%
CC1CN(C(=O)COc2ccc3ccccc3c2Br)CC(C)O1 (configuration not stated)	-13.1%	8.1	nt	0.9	6.1%	-1.9%
O=C(COC(=O)C1CCN(C(=O)c2ccc(Cl)cc2)CC1)Nc1ccccc1F	14.9%	26.3	nt	1.0	-20.4%	0.9%
COC(=O)c1c(-c2ccccc2)noc1-c1ccccc1	-9.6%	0.6	nt	1.5	12.4%[15.4 µM]	nt
